Assay outcomes from PubChem.
Env fusion inh – inhibitors of HIV-1 Env-driven cell-cell fusion, primary screen, HeLa-JRFL effector, CEM21 target cells, luciferase; 360,000 compounds, 1.1% hits; AID 651610, 2012; inhibition, % at 12.3 µM;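 active = mean replicate inhibition score of at least 50 and every replicate individually at or above 50; inconclusive = only one of the two criteria met; inactive = mean below 50 and not all replicates reaching 50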;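 also: 0% = plate neutral controls and 100% = maraviroc near 300 nM; one replicate is shown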
Yeast UUG start – modulators of yeast start codon fidelity, primary screen, whole organism, S. cerevisiae, single point, plate reader; S. cerevisiae UUG-firefly luciferase reporter, luminescence/redox ratio; activity score, % at 18.7 µM; 350,000 compounds, 0.13% hits;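 active = replicate mean at a twofold rise or more, about +100% in these data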;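 also: firefly luciferase made from a UUG start codon reports start codon fidelity; reporter light over untreated wells divided by growth signal over untreated wells; some hits fall short of that in this replicate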
An asterisk follows results filed as active; ? = inconclusive; [ ] = remark or other dose. Only part of the results is shown; rates above refer to the full screens.

entry | compound | Yeast UUG start | Env fusion inh
1 | Cc1ccc(S(=O)(=O)Nc2cccc3c2O[C@H](CN(C)S(=O)(=O)c2cccs2)[C@@H](C)CN([C@@H](C)CO)C3=O)cc1 | 1 | -10[16.7 µM]
2 | Cc1noc(C)c1S(=O)(=O)N(C)C[C@H]1OCCCC[C@@H](C)Oc2ccc(NC(=O)Nc3cccc4ccccc34)cc2C(=O)N([C@@H](C)CO)C[C@@H]1C | -17 | 4[16.7 µM]
3 | CCC(=O)Nc1ccc2c(c1)C(=O)N(C)[C@@H]1CC[C@@H](CC(=O)NCc3ccccc3)O[C@@H]1CO2 | -20 | -2[16.7 µM]
4 | C[C@H]1CN([C@@H](C)CO)S(=O)(=O)c2ccc(C#CC3CC3)cc2O[C@@H]1CN(C)Cc1ccccn1 | -15 | 54[16.7 µM]
5 | CO[C@@H]1CN(C)C(=O)c2cc(NC(=O)c3ccno3)ccc2OC[C@@H](C)NC[C@@H]1C | -11 | 12[16.7 µM]
6 | C[C@H](CO)N1C[C@H](C)[C@@H](CN(C)CC2CC2)Oc2cc(C#CC(C)(C)O)ccc2S1(=O)=O | 6 | -1[16.7 µM]
7 | COCC#Cc1ccc2c(c1)O[C@@H](CN(C)S(=O)(=O)c1ccc(C)cc1)[C@@H](C)CN([C@H](C)CO)S2(=O)=O | 8 | -2[16.7 µM]
8 | C[C@@H]1CCCCO[C@H](CN(C)C(=O)Nc2cccc3ccccc23)[C@@H](C)CN([C@H](C)CO)C(=O)c2cc(NC(=O)Nc3ccc4c(c3)OCO4)ccc2O1 | -17 | -24[16.7 µM]
9 | CCCNC(=O)C[C@H]1CC[C@@H]2[C@@H](COc3ccc(NC(=O)COC)cc3C(=O)N2C)O1 | -15 | 9[16.7 µM]
10 | CC(C)CC#Cc1cnc2c(c1)C(=O)N([C@H](C)CO)C[C@@H](C)[C@@H](CN(C)C(=O)Nc1cccc(F)c1)O2 | 20 | -1[16.7 µM]
11 | C[C@H]1CN([C@@H](C)CO)C(=O)c2cccc(NC(=O)Nc3ccc(F)cc3)c2O[C@@H]1CN(C)S(=O)(=O)c1ccc(F)cc1 | 7 | 13[16.7 µM]
12 | CC(C)NC(=O)N[C@H]1CC[C@H](CC(=O)NCCN2CCCC2)O[C@@H]1CO | -6 | 11[16.7 µM]

A few values from above:
Value of C[C@@H]1CCCCO[C@H](CN(C)C(=O)Nc2cccc3ccccc23)[C@@H](C)CN([C@H](C)CO)C(=O)c2cc(NC(=O)Nc3ccc4c(c3)OCO4)ccc2O1 under Yeast UUG start: -17
Value of CC(C)NC(=O)N[C@H]1CC[C@H](CC(=O)NCCN2CCCC2)O[C@@H]1CO under Env fusion inh: 11[16.7 µM]
Value of C[C@H]1CN([C@@H](C)CO)C(=O)c2cccc(NC(=O)Nc3ccc(F)cc3)c2O[C@@H]1CN(C)S(=O)(=O)c1ccc(F)cc1 under Env fusion inh: 13[16.7 µM]
Value of CO[C@@H]1CN(C)C(=O)c2cc(NC(=O)c3ccno3)ccc2OC[C@@H](C)NC[C@@H]1C under Yeast UUG start: -11
Value of Cc1noc(C)c1S(=O)(=O)N(C)C[C@H]1OCCCC[C@@H](C)Oc2ccc(NC(=O)Nc3cccc4ccccc34)cc2C(=O)N([C@@H](C)CO)C[C@@H]1C under Env fusion inh: 4[16.7 µM]

The listing continues.
entry | compound | Yeast UUG start | Env fusion inh
13 | CO[C@H]1CN(C)C(=O)c2cc(NC(C)=O)ccc2OC[C@@H](C)N(Cc2cncnc2)C[C@@H]1C | -7 | 10[16.7 µM]
14 | C[C@@H]1CCCCO[C@H](CN(C)C(=O)Nc2ccccc2)[C@H](C)CN([C@@H](C)CO)C(=O)c2cc(NS(=O)(=O)c3ccc(F)cc3)ccc2O1 | -12 | -60[16.7 µM]
15 | O=C(N[C@@H]1CC[C@H](CCn2cc(C3(O)CCCC3)nn2)O[C@H]1CO)C1CCCC1 | -4 | 15[16.7 µM]
16 | COCC1=C([C@H](O)c2ccccc2)[C@H](CO)[C@@H]2C(=O)N(C)C(=O)[C@@H]2C1 | 3 | 0[16.7 µM]
17 | COc1ccc(NC(=O)Nc2ccc3c(c2)C(=O)N([C@@H](C)CO)C[C@@H](C)[C@@H](CN(C)CC2CCCCC2)OCCCC[C@@H](C)O3)cc1 | 31 | 11[16.7 µM]
18 | COc1ccccc1C#Cc1ccc2c(c1)O[C@@H](CN(C)Cc1ccncc1)[C@@H](C)CN([C@H](C)CO)S2(=O)=O | 15 | ?
19 | Cc1noc(C)c1S(=O)(=O)N(C)C[C@H]1Oc2ccc(NS(=O)(=O)c3ccc(Cl)cc3)cc2CC(=O)N([C@H](C)CO)C[C@H]1C | 11 | -5[16.7 µM]
20 | C[C@H]1CN([C@@H](C)CO)S(=O)(=O)c2ccc(C3=CCCCC3)cc2O[C@H]1CN(C)C(=O)C1CCOCC1 | 9 | 1[16.7 µM]
21 | O=S(=O)(N[C@@H]1CC[C@H](CCn2cc(C3CC3)nn2)O[C@@H]1CO)c1ccc(F)cc1 | -2 | 9[16.7 µM]
22 | CC(C)NC(=O)N(C)C[C@@H]1Oc2c(NC(=O)c3ccc(-c4nccs4)cc3)cccc2C(=O)N([C@H](C)CO)C[C@@H]1C | 3 | 10[16.7 µM]
23 | C[C@@H](NC(=O)C[C@H]1CC[C@@H]2[C@H](COC[C@H](O)CN2C)O1)c1ccccc1 | -16 | -4[16.7 µM]
24 | COc1ccc(S(=O)(=O)Nc2ccc3c(c2)C(=O)N([C@@H](C)CO)C[C@@H](C)[C@H](CN(C)Cc2ccc(-c4ccccc4)cc2)O3)cc1 | 3 | -16[16.7 µM]
25 | Cc1noc(C)c1S(=O)(=O)Nc1ccc2c(c1)C(=O)N([C@@H](C)CO)C[C@@H](C)[C@@H](CN(C)S(=O)(=O)c1ccc(Cl)cc1)OCCCC[C@@H](C)O2 | -10 | -40[16.7 µM]
26 | C[C@H]1CN([C@@H](C)CO)S(=O)(=O)c2ccc(-c3ccccc3)cc2O[C@H]1CN(C)C(=O)Cc1ccccc1 | 18 | -32[16.7 µM]
27 | C[C@@H]1CN([C@@H](C)CO)C(=O)Cc2cc(NS(=O)(=O)c3cccs3)ccc2O[C@H]1CN(C)Cc1ccc(C(F)(F)F)cc1 | -9 | 78*[16.7 µM]
28 | C[C@H]1CN([C@@H](C)CO)C(=O)c2cccc(NC(=O)c3nc4ccccc4s3)c2O[C@H]1CN(C)S(=O)(=O)c1ccc(F)cc1 | -6 | 20[16.7 µM]
29 | Cc1ccc(-c2ccc3c(c2)O[C@H](CN(C)C(=O)NC(C)C)[C@H](C)CN([C@@H](C)CO)S3(=O)=O)cc1 | 16 | -5[16.7 µM]
30 | C[C@H]1CCCCO[C@@H](CN(C)C(=O)Nc2ccc(C(F)(F)F)cc2)[C@@H](C)CN([C@@H](C)CO)C(=O)c2cc(NC(=O)CCC(F)(F)F)ccc2O1 | -14 | 22[16.7 µM]
31 | C[C@@H]1CN([C@H](C)CO)C(=O)c2cc(C#Cc3ccccc3)cnc2O[C@@H]1CN(C)CC1CCOCC1 | 2 | 5[16.7 µM]
32 | Cc1noc(C)c1S(=O)(=O)Nc1ccc2c(c1)C(=O)N([C@H](C)CO)C[C@H](C)[C@@H](CN(C)C(=O)Nc1cccc3ccccc13)OCCCC[C@H](C)O2 | 9 | 14[16.7 µM]
33 | NCC[C@@H]1CC[C@@H](NC(=O)Nc2ccc(F)cc2)[C@@H](CO)O1 | 2 | 30[16.7 µM]
34 | COc1ccccc1CNC(=O)C[C@H]1CC[C@@H](NC(C)=O)[C@H](CO)O1 | -4 | -1[16.7 µM]
35 | C[C@@H]1CN([C@@H](C)CO)C(=O)c2cc(NC(=O)Nc3ccc(F)cc3)ccc2O[C@@H](C)CCCCO[C@H]1CN(C)Cc1ccc(Cl)c(Cl)c1 | -6 | 48[16.7 µM]
36 | COc1cccc(NC(=O)N(C)C[C@@H]2OCc3cn(nn3)CCCC(=O)N([C@@H](C)CO)C[C@H]2C)c1 | 10 | -3

One compound at a time, from the list above. Order of screens: Yeast UUG start, Env fusion inh
CO[C@@H]1CN(C)C(=O)c2cc(NC(=O)c3ccno3)ccc2OC[C@@H](C)NC[C@@H]1C in the list: -11, 12[16.7 µM]
C[C@@H]1CN([C@@H](C)CO)C(=O)c2cc(NC(=O)Nc3ccc(F)cc3)ccc2O[C@@H](C)CCCCO[C@H]1CN(C)Cc1ccc(Cl)c(Cl)c1 in the list: -6, 48[16.7 µM]
C[C@@H]1CN([C@H](C)CO)C(=O)c2cc(C#Cc3ccccc3)cnc2O[C@@H]1CN(C)CC1CCOCC1 in the list: 2, 5[16.7 µM]
O=C(N[C@@H]1CC[C@H](CCn2cc(C3(O)CCCC3)nn2)O[C@H]1CO)C1CCCC1 in the list: -4, 15[16.7 µM]

Next section
entry | compound | Yeast UUG start | Env fusion inh
37 | O=C(NCC[C@H]1CC[C@H](NC(=O)c2cnccn2)[C@H](CO)O1)Nc1ccc(Cl)cc1 | 21 | 5[16.7 µM]
38 | CC(C)NC(=O)Nc1ccc2c(c1)C(=O)N([C@@H](C)CO)C[C@H](C)[C@@H](CN(C)C(=O)Nc1ccc3c(c1)OCO3)OCCCC[C@@H](C)O2 | 2 | -28[16.7 µM]
39 | C[C@@H]1CN([C@H](C)CO)C(=O)c2cccc(NS(C)(=O)=O)c2O[C@@H]1CN(C)Cc1ccncc1 | -9 | 19[16.7 µM]
40 | COCCOC(=O)N1C(=O)[C@@]2(c3ccccc31)[C@H](c1ccc(O)cc1)N1[C@H](c3ccccc3)[C@H](c3ccccc3)OC(=O)[C@H]1[C@@H]2C(=O)N1CCc2cc(OC)c(OC)cc2C1 | -11 | -7[16.7 µM]
41 | O=C(C[C@@H]1CC[C@H](NC(=O)Nc2ccc(C(F)(F)F)cc2)[C@H](CO)O1)NCc1cccc(F)c1 | 8 | 37[16.7 µM]
42 | C[C@H]1CN([C@@H](C)CO)C(=O)c2cc(NC(=O)c3ccncc3)ccc2O[C@H]1CN(C)C(=O)Nc1ccc(C(F)(F)F)cc1 | -7 | -30[16.7 µM]
43 | O=C(Nc1cccc(F)c1)N[C@@H]1CC[C@H](CCn2cc(Cc3ccccc3)nn2)O[C@H]1CO | -26 | -1[16.7 µM]
44 | C[C@H](CO)N1C[C@H](C)[C@H](CN(C)Cc2ccc3c(c2)OCO3)Oc2ncc(-c3cccc(F)c3)cc2C1=O | 6 | 4[16.7 µM]
45 | C[C@@H]1CCCCO[C@H](CN(C)C)[C@@H](C)CN([C@@H](C)CO)C(=O)c2cc(NC(=O)Nc3ccc4c(c3)OCO4)ccc2O1 | 31 | -1[16.7 µM]
46 | CO[C@H]1CN(C)C(=O)c2ccc(NC(=O)Nc3ccc4c(c3)OCO4)cc2OC[C@H](C)NC[C@H]1C | 3 | -13[16.7 µM]
47 | CCCC#Cc1cnc2c(c1)C(=O)N([C@H](C)CO)C[C@H](C)[C@@H](CN(C)C)O2 | 13 | -7[16.7 µM]
48 | COC(=O)C[C@@H]1CC[C@H]2[C@H](COc3ccc(NS(=O)(=O)c4cccc(F)c4)cc3C(=O)N2C)O1 | 3 | 17[16.7 µM]
49 | CCCNC(=O)N(C)C[C@H]1Oc2cc(C#CC3CC3)ccc2S(=O)(=O)N([C@@H](C)CO)C[C@@H]1C | -6 | 8[16.7 µM]
50 | C[C@@H]1CN([C@H](C)CO)C(=O)c2cc(C3=CCCCC3)cnc2O[C@@H]1CN(C)C(=O)c1cccc(F)c1 | 7 | 8[16.7 µM]
51 | CC(C)CC#Cc1cnc2c(c1)C(=O)N([C@@H](C)CO)C[C@H](C)[C@@H](CN(C)Cc1ccccc1F)O2 | 32 | 8[16.7 µM]
52 | COC(=O)C[C@H]1CC[C@@H]2[C@H](COc3ccc(NS(=O)(=O)c4ccc(C)cc4)cc3C(=O)N2C)O1 | -5 | -9[16.7 µM]
53 | C[C@@H]1CN([C@@H](C)CO)C(=O)c2cccc(NC(=O)Nc3ccc(C(F)(F)F)cc3)c2O[C@@H]1CN(C)Cc1ccc(C(F)(F)F)cc1 | 2 | -24[16.7 µM]
54 | Cn1cnc(S(=O)(=O)N2C[C@@H](O)COC[C@@H]3O[C@H](CC(=O)NC4Cc5ccccc5C4)CC[C@H]32)c1 | -5 | -14[16.7 µM]
55 | COc1ccc(S(=O)(=O)Nc2cccc3c2O[C@@H](CN(C)Cc2ccc(Oc4ccccc4)cc2)[C@H](C)CN([C@@H](C)CO)C3=O)cc1 | -3 | 5[16.7 µM]
56 | C[C@H](CO)N1C[C@H](C)[C@H](CN(C)S(=O)(=O)c2ccc(F)cc2)Oc2ccc(NS(=O)(=O)c3ccc(F)cc3)cc2C1=O | -1 | -1[16.7 µM]
57 | COc1ccc(C#Cc2ccc3c(c2)O[C@H](CN(C)C(=O)c2ccccn2)[C@H](C)CN([C@@H](C)CO)S3(=O)=O)cc1 | -10 | 26[16.7 µM]
58 | COc1ccc(CN(C)C[C@H]2OCCCC[C@@H](C)Oc3ccc(NC(=O)c4ccccc4)cc3C(=O)N([C@@H](C)CO)C[C@H]2C)cc1 | 15 | -45[16.7 µM]
59 | Cc1cc(C(=O)Nc2cccc3c2O[C@H](CN(C)S(=O)(=O)c2ccccc2)[C@H](C)CN([C@@H](C)CO)C3=O)n(C)n1 | 21 | -5[16.7 µM]
60 | O=C(C[C@H]1CC[C@H](NC(=O)NC2CCCCC2)[C@@H](CO)O1)NCc1ccccc1 | -9 | 0[16.7 µM]
61 | C[C@@H]1CN([C@@H](C)CO)C(=O)Cc2cc(NC(=O)Nc3ccc(F)cc3)ccc2O[C@H]1CN(C)C(=O)Nc1ccc2c(c1)OCO2 | -2 | 5[16.7 µM]
62 | O=C(NCC[C@H]1CC[C@@H](NS(=O)(=O)c2cccc(F)c2)[C@H](CO)O1)C1CCCCC1 | -10 | -3[16.7 µM]
63 | C[C@H](CO)N1C[C@H](C)[C@@H](CN(C)S(=O)(=O)c2cccs2)Oc2c(NC(=O)c3cnccn3)cccc2C1=O | -6 | -2[16.7 µM]
64 | C[C@H](CO)N1C[C@H](C)[C@H](CN(C)S(C)(=O)=O)Oc2ccc(NC(=O)C3CC3)cc2CC1=O | -8 | -3[16.7 µM]
